Bioassay records as filed in PubChem.
Marburg entry inh – qHTS for inhibitors of binding or entry into cells for Marburg Virus. actives 1.8% (n = 300,000). Marburg virus pseudotyped entry inhibition, cell reporter; control for the full effect not named in the record; about a third of the inactives were read at about 46 µM. Potency, µM (highest dose often 37.8 µM), inactives show at the top dose activity change, negative = inhibition, most hits filed as inhibitors; active = well fitted inhibition curve with a large enough effect; inconclusive = small, poorly fitted or top-dose-only effect, or effect the other way; inactive = flat fitted curve, though single readings scatter; tested in HEK293 cells; about a fifth of its hits are not listed in these tables; note: % is set by controls: 0 for no effect and ±100 for the full control effect; luciferase read-out
RE007 growth inh – qHTS Assay for Inhibitors of the HIV-1 protein Vpr; S. pombe RE007 Vpr strain, BacTiter-Glo ATP luminescence, 24 h; control for the full effect not named in the record; Potency, µM (titrated, usually from 92.2 µM), for the others: top-dose activity change, negative = less growth; actives 0.21% (n = 360,000); active = well fitted falling curve with a large enough effect; inconclusive = small, poorly fitted or top-dose-only effect; inactive = no such curve, though single readings can be large or run the other way;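 note: % is set by controls: 0 for no effect and ±100 for the full control effect; nearly all actives have a fitted effect of over 50% in size; the assay follows cell death caused by Vpr and the record does not say whether a fall means rescue or toxicity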
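Fission yeast strain RE007, carrying one chromosomally integrated HIV-1 vpr copy, was seeded at OD 0.01 in PMG+AL medium with 23 nL pinned compound. After 24 h at 30 °C and 99% humidity, viability was read by BacTiter-Glo luminescence.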
Cruzain noTriton – qHTS Assay for Promiscuous and Specific Inhibitors of Cruzain (without detergent); Cruzipain (Trypanosoma cruzi), P25779; purified cruzain, Z-FR-AMC fluorescence, no detergent; Potency, µM, for inactives: max response, negative = inhibition, hits mostly inhibitors; actives 2.3% (n = 200,000); AID 1476, 2009; active = well fitted curve in the direction sought with a large enough effect; inconclusive = small, poorly fitted or top-dose-only effect, or another doubt; inactive = no such curve, though single readings can be large; an effect the other way counts as inactive or inconclusive;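 note: plate controls were enzyme without inhibitor for no effect and buffer without enzyme for full effect; nearly all actives have a fitted effect of over 40% in size; top concentration of the series not given in the record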
Target sequence (P25779 123-467 limits assumed): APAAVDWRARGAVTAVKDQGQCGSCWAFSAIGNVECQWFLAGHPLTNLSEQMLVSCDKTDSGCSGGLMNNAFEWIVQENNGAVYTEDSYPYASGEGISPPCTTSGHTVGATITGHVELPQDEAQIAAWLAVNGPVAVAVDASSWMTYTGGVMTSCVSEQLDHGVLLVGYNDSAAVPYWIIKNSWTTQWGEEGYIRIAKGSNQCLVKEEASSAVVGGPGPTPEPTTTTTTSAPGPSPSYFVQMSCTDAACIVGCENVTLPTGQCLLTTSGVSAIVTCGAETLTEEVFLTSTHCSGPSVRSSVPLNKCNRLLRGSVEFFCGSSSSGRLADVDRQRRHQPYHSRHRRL
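Detergent-free condition (0.00005% Triton X-100) in acetate buffer pH 5.5 with DTT. 1.5 nM enzyme and compound were pre-mixed 15 min, then 2 uM Z-FR-AMC substrate added; reaction progress from fluorescence change between first and third reads (60 s).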
StopGo reporter – High Throughput Screening for Foot and Mouth Disease Virus Antivirals. human cells with a luciferase reporter of 2A StopGo recoding; control for the full effect not named in the record. Potency, µM (series often up to 57.9 µM), for the others: at the top dose signal change, negative = less light. actives 1.2% (n = 410,000); active = well fitted falling curve with a large enough effect; inconclusive = small, poorly fitted or top-dose-only effect; inactive = no such curve, though single readings can be large or run the other way; tested in HEK293T cells; note: % is set by controls: 0 for no effect and ±100 for the full control effect; nearly all actives have a fitted effect of over 45% in size; luciferase light after 4 h
LASV entry inh – qHTS for Inhibitors of binding or entry into cells for Lassa Virus | Lassa virus pseudotype entry inhibition, cell reporter; control for the full effect not named in the record | Potency, µM (top dose mostly 37.9 µM), for the others: at the highest dose activity change, negative = inhibition, usual class: inhibitors | AID 540256, 2011 | actives 1.2% (n = 300,000); active means well fitted inhibition curve with a large enough effect; inconclusive means small, poorly fitted or top-dose-only effect, or effect the other way; inactive means flat fitted curve, though single readings scatter; tested in HEK293 cells; note: % is set by controls: 0 for no effect and ±100 for the full control effect; nearly all actives have a fitted effect of over 50% in size; luciferase read-out
Cruzain inh Det – qHTS Assay for Promiscuous and Specific Inhibitors of Cruzain (with detergent); Potency, µM, inactives show max response, negative = inhibition, usual class: inhibitors; Cruzipain (Trypanosoma cruzi), P25779; actives 0.43% (n = 200,000); purified cruzain, Z-FR-AMC fluorescence, 0.01% Triton; active = well fitted curve in the direction sought with a large enough effect; inconclusive = small, poorly fitted or top-dose-only effect, or another doubt; inactive = no such curve, though single readings can be large; an effect the other way counts as inactive or inconclusive;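 note: plate controls were neutral wells for no effect and buffer without enzyme for full effect; nearly all actives have a fitted effect of over 40% in size; top concentration of the series not given in the record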
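Read-out: AMC fluorescence (360 nm excitation, 450 nm emission), four reads over 2 min, first-to-third difference used. Conditions: cruzain 1.5 nM, Z-FR-AMC 2 uM, pH 5.5 acetate, 5 mM DTT, 0.01% Triton X-100.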
SARS PLpro yeast – qHTS of Yeast-based Assay for SARS-CoV PLP. S. cerevisiae expressing SARS-CoV PLpro, growth rescue; control for the full effect not named in the record. Potency, µM (top dose mostly 32.9 µM), for the others: at the highest dose activity, positive = growth rescue. actives 0.19% (n = 330,000); note: 0% is about no effect; nearly all actives have a fitted effect of over 55% in size; growth read by luminescence after 48 h
NS1 inh – qHTS Assay for Inhibitors of Influenza NS1 Protein Function; S. cerevisiae slowed by influenza A NS1, growth recovery by OD600; Potency, µM (doses to about 46.1 µM), for inactives: at the top dose activity, positive = more growth; actives 0.4% (n = 270,000); AID 2326, 2010; note: actives are rising curves; nearly all actives have a fitted effect of over 50% in size
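S. cerevisiae expressing influenza A NS1, grown in glucose, washed, then diluted 1:100 into pH 6.0 -URA galactose medium with 23 nl compound. Growth recovery read as OD600; NS1-free strain serves as control.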
An asterisk follows results filed as active; ? = inconclusive; · = no result given; & = joins results of further samples; [ ] = dose if it differs, or a comment. Unless noted, calls come from the whole dose curve; as a rule, active means well fitted rising curve with a large enough effect; inconclusive means small, poorly fitted or top-dose-only effect; inactive means no such curve, though single readings can be large or run the other way. Potency is the fitted concentration of half-maximal effect.

SMILES | Marburg entry inh | RE007 growth inh | Cruzain noTriton | StopGo reporter | LASV entry inh | Cruzain inh Det | SARS PLpro yeast | NS1 inh
O=C(CCC1CCN(C(=O)c2ccco2)CC1)NCc1ccc(F)cc1 | 6.7% | -25.6% | · | 1.6% | 1.0% | · | -1.3% | -2.5%
Cc1cc(=O)[nH]c(N/N=C/C2=C(N3CCOCC3)C(=C\c3ccc(Cl)cc3)/CC2)n1 | ? | -7.1% | 5.3% | ? | 10.0% | -5.0% | -29.7% | 8.6%
O=C(OC(c1ccccc1)c1nccc2ccccc12)c1cccc([N+](=O)[O-])c1 (configuration not stated) | ? | 9.0% | ? | 27.5% | 9.6% | 0.3% | -78.9% | 14.3%
CCCn1c(NCc2ccc(N(C)C)cc2)nc2ccccc21 | · | -6.4% | 5.1% | 15.5% | · | 2.5% | -4.5% | -18.7%
CCc1cccc(NC(=O)Cn2c(=O)n3nc(-c4cccc(F)c4)nc3c3ccccc32)c1 | · | · | -14.4% | -9.0% | -2.0%[46.1 µM] | -1.8% | · | ·
O=C(NNC(=O)c1ccc2ccccc2c1O)c1ccccc1Cl | 10.5%[46.1 µM] | -13.1% | -18.4% | 26.8% | -9.1% | -1.9% | -3.8% | 5.8%
Nc1cc(N)nc(SCC(=O)N2CCN(C(=O)c3ccco3)CC2)n1 | -3.0% | 4.7% | -3.5% | -17.4% | 4.1% | 0.6% | -2.9% | 9.4%
CC[C@H](C)C(=O)O[C@H]1C[C@@H](C)C=C2C=C[C@H](C)[C@H](CC[C@@H]3C[C@@H](O)CC(=O)O3)[C@H]21 | -19.3%&0.0% | -6.1%[18.4 µM] | ? | ? | -3.7% | -14.3%&-10.6% | 0.0%&-9.3% | 6.1%
Cc1cc(C)c(OCC(=O)Nc2cccc(O)c2)cc1C | -0.3% | -7.5% | ? | -13.8% | 0.3% | 2.1% | -2.3% | -9.2%
CC[C@H](C)[C@@H](C(=O)N1CCNCC1)n1cc([C@@H](N)Cc2ccc(O)cc2)nn1 | · | -4.6% | · | -4.8% | · | · | 0.3% | 2.8%
COCCNC(=S)N(Cc1cccs1)Cc1cc2cccc(C)c2[nH]c1=O | ? | 9.5% | · | -10.7% | ? | · | 1.1% | -1.2%
CC(C)N(Cc1ccccc1)C(=O)c1ccc2nsnc2c1 | 1.3%[46.1 µM] | 15.8% | · | 42.1%[activator] | 11.9% | · | -1.0% | -0.5%
CCN(CC)CCCNC(=O)c1nn(-c2ccc(OC)c(Cl)c2)c(=O)c2c1c1ccccc1n2C | 8.4%[46.1 µM] | · | 0.0% | -2.5% | 7.9%[46.1 µM] | -1.3% | · | ·
OCCNC1=NCCN1 | -22.5%&-22.5%[46.1 µM] | 4.6% | 1.4% | 3.6% | -8.7% | 3.0% | -1.8% | -2.9%
COc1cccc(CN(C)C(=O)c2cccc(OCc3ccccc3)c2)c1 | ? | -0.7% | · | -12.6% | ? | · | -33.5% | -16.7%
N=C1C(=O)OCC1c1cc(Cl)ccc1NC(=O)Nc1ccccc1 (configuration not stated) | 7.1% | 18.3%[3.69 µM] | ? | -12.5% | -6.6% | -1.1% | -11.7% | 12.1%
c1ccc(COCCN2CCN(CCOCc3ccccc3)CC2)cc1 | ? | 2.4% | -5.3% | 4.6% | -3.2% | 5.4% | 6.1% | 17.1%
CCCCCn1c(=O)[nH]c2cc(C(=O)NCCN3CCOCC3)ccc2c1=O | -15.4% | 3.2% | · | -21.3% | -4.2% | · | · | 2.3%
COc1ccc(NS(=O)(=O)c2cc(NC(=O)/C=C/c3cc(OC)c(OC)c(OC)c3)ccc2N2CCCCC2)cc1 | -15.0%&-21.8% | 16.3% | 0.6% | 85.6%[activator] | 0.5%&-16.8% | -2.1% | 12.7% | 25.6%
COC(=O)c1ccc(OC)c(Cn2c(=O)n(-c3cccc(Cl)c3)c(=O)c3c4c(sc32)CN(C(C)=O)CC4)c1 | -1.3%[46.1 µM] | · | 1.7% | -16.2% | 16.5%[46.1 µM] | -1.8% | · | ·
CC1CCCCC1NC(=O)CSc1nnc(-c2ccncc2)n1CCCN(C)C (configuration not stated) | -0.3%[46.1 µM] | 4.7% | · | -0.4% | -1.7%[46.1 µM] | · | -2.7% | 4.0%
COc1cccc(NC(=O)N2CCC(C(N)=O)(N3CCCCC3)CC2)c1 | 1.7% | -7.2% | -3.1% | -9.5% | 9.9% | 2.8% | 1.9% | -0.3%
COc1ccccc1NC(=O)c1cc2ccccc2o/c1=N\O | 14.2%&0.5% | 8.6% | ? | 14.0% | -10.8% | -1.2% | -3.6% | -153.3%
Cc1ccc(C)c(N2CCN(C(=O)c3ccc4c(=O)n(CCc5ccccc5)c(=O)[nH]c4c3)CC2)c1 | -9.8%[46.1 µM] | · | -4.4% | -4.3% | ? | -2.3% | · | ·
CC(=O)c1ccc(N2CCN(C(=O)c3ccc(NC(=O)C4CCCO4)cc3)CC2)cc1 (configuration not stated) | 8.2%&8.2% | 4.5% | -1.0% | 26.7% | -0.4% | -4.5% | -2.1% | 0.6%
Other records:
SMILES | Marburg entry inh | RE007 growth inh | Cruzain noTriton | StopGo reporter | LASV entry inh | Cruzain inh Det | SARS PLpro yeast | NS1 inh
CCc1nn(CC(=O)NCCCN2CCOCC2)c(=O)c2cc3sccc3n12 | · | 3.7% | · | -15.5% | · | · | -0.8% | 1.5%
COCc1nc(-c2cc(Br)ccc2OC)no1 | -7.2%[46.1 µM] | -17.2% | 0.1% | -13.2% | 0.6% | -0.4% | · | -9.8%
CCNc1nc(NCc2ccccc2)nc(SCC(=O)Nc2ccccc2)n1 | ? | -1.2% | 4.1% | ? | ? | -8.0% | 18.4% | -5.7%
CS(=O)(=O)c1ccc(C(=O)N2CCC(C(=O)O)(c3ccccc3)CC2)cc1 | 9.0%[46.1 µM] | 5.2% | · | -3.8% | · | · | -1.3% | 9.9%
CCOc1ccccc1OCCCC(=O)Nc1ccc(OC)nc1 | ? | -1.8% | -0.8% | · | -18.3% | 4.6% | -2.4% | -17.5%
O=C(CSc1nnc(-c2ccncc2)n1CC1CCCO1)Nc1nccs1 (configuration not stated) | -10.7%[46.1 µM] | 13.5% | -3.9% | 9.1% | -0.8% | -0.8% | 7.9% | 11.1%
COc1cc(NC(=O)c2ccco2)c(OC)cc1NC(=O)CSc1nnc(-c2cccs2)n1C | ? | -11.7% | 10.7% | 24.4% | -9.9% | -2.8% | -4.2% | -1.3%
CCCCn1c(N)c(N(CC(C)C)C(=O)c2oc3ccc(Br)cc3c2C)c(=O)[nH]c1=O | -15.2%[46.1 µM] | -2.7% | · | -22.0% | 2.2% | · | 4.5% | ·
Cc1ccc(C(=O)c2ccccc2C(=O)O)cc1C | -25.3%[46.1 µM] | 11.6% | · | 1.3% | 15.5% | · | 0.6% | ·
Cc1ccc(CCNC(=O)CSCc2ccc(F)cc2)cc1 | -5.0%[46.1 µM] | 13.8% | · | 6.2% | 4.5%[46.1 µM] | · | -3.4% | -5.4%
CCNc1ccc(C(=O)OCC(=O)NC(=O)NCC(C)C)cc1[N+](=O)[O-] | 23.2%[46.1 µM] | -18.5% | · | 5.0% | -12.6% | · | -0.5% | 8.0%
O=C(NCCOc1ccccc1)C1CCC(=O)N(CCCN2CCCC2=O)C1 (configuration not stated) | 16.5% | 2.5% | · | -8.2% | 7.0% | · | -0.2% | 3.1%
COc1ccc2nc(N=Nc3ccc(N(C)C)cc3)sc2c1 | ? | -18.8% | -24.4% | 12.6µM* | ? | 2.9% | 0.1% | 5.5%
CCN(CC)C(=O)c1sc(NC(=O)C(C)C)c(C#N)c1C | 13.2%[46.1 µM] | 0.3% | · | 0.9% | -15.6%[46.1 µM] | · | 0.9% | 1.2%
O=C(c1cccs1)c1ccccc1Cc1cccs1 | -23.6% | -35.1% | · | -2.5% | 1.2% | · | · | ·
CC(C)c1ccc2[nH]c3c(c2c1)CCC/C3=N\NC(=O)c1ccncc1 | ? | ? | · | ? | ? | · | -2.6% | 9.4%
CC1CC(C)CN(CCCNC(=O)c2csc3c2CCCCC3)C1 (configuration not stated) | · | 2.6% | · | -7.9% | · | · | -0.7% | -3.3%
CCc1cccc(CC)c1NC(=S)NC(C)c1ccccc1 (configuration not stated) | -27.0% | -0.2% | 6.3% | 7.7% | -21.9% | -5.4% | 21.0% | -18.3%
CCC1CCCCN1CCCNC(=O)CN1C(=O)COc2ccccc21 (configuration not stated) | · | -3.7% | · | 1.4% | · | · | 5.6% | -11.7%
CC(CN1CCCC1)OC(=O)c1ccc(Br)cc1 (configuration not stated) | · | 0.7% | · | -2.6% | · | · | 0.6% | 3.7%
Cc1cccc(NC(=O)CSc2nnc([C@@H](N)Cc3c[nH]c4ccccc34)o2)c1C | 7.8% | 23.2% | 12.6µM* | -7.2% | -6.2% | 12.6µM* | 2.4% | 11.2µM*
COc1ccc(C2=C(SC)CC2=NC(C)(C)C)cc1 | ? | 11.1% | 1.7% | -25.2% | 6.7% | -9.9% | 13.7% | 1.9%
CC1CN(C(=O)c2ccc(N3CCCCC3)c([N+](=O)[O-])c2)CC(C)O1 (configuration not stated) | -13.9% | 17.1% | 3.2% | -3.0% | 16.1% | -0.9% | -6.4% | -6.2%
Cc1nc(N2CCOCC2)c2c(C(=O)NCCc3ccccc3)c(C)oc2n1 | · | · | -8.0% | 30.4%[activator] | ? | -1.0% | · | ·
CCOc1ccc(C2=Nn3c(nnc3-c3ccccc3OC)SC2)cc1 | 0.291µM* | 28.1% | 1.5% | -26.2% | 0.0231µM* | -12.0% | -4.4% | 3.0%
